From PubChem
UUG fidelity = modulators of yeast start codon fidelity, primary screen, whole organism, S. cerevisiae, single point, plate reader | S. cerevisiae UUG-firefly luciferase reporter, luminescence/redox ratio | activity score, % at 18.7 µM | actives 0.13% (n = 350,000) | AID 602363, 2012;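 active means replicate mean at a twofold rise or more, about +100% in these data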;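 further: firefly luciferase made from a UUG start codon reports start codon fidelity; reporter light over untreated wells divided by growth signal over untreated wells; some hits fall short of that in this replicate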
HIV Env fusion = inhibitors of HIV-1 Env-driven cell-cell fusion, primary screen, HeLa-JRFL effector, CEM21 target cells, luciferase; inhibition, % at 12.3 µM; actives 1.1% (n = 360,000);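 active means mean replicate inhibition score of at least 50 and every replicate individually at or above 50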;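 further: 0% = plate neutral controls and 100% = maraviroc near 300 nM; one replicate is shown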
The depositor's hits bear a star; [ ] = another dose, or the depositor's remark. Only part of the results is shown. The share of hits here may be higher or lower than overall.

Value order – UUG fidelity	HIV Env fusion
C[C@H](CO)N1C[C@H](C)[C@H](CN(C)Cc2ccc(C(F)(F)F)cc2)Oc2ccc(NS(=O)(=O)c3ccc(Cl)cc3)cc2C1=O
  -2.3	-28.0[16.7 µM]
C[C@H](NC(=O)C[C@@H]1C[C@@H]2c3cc(NC(=O)NC4CCCC4)ccc3O[C@@H]2[C@H](CO)O1)c1ccccc1
  15.3	-7.4[16.7 µM]
C[C@H](CO)N1C[C@H](C)[C@H](CN(C)CC2CC2)OCCCC[C@H](C)Oc2ccc(NC(=O)c3ccncc3)cc2C1=O
  14.7	-10.4[16.7 µM]
CC(=O)N(C)C[C@H]1Oc2cc(-c3ccc(C)cc3)ccc2S(=O)(=O)N([C@@H](C)CO)C[C@@H]1C
  18.6	1.7[16.7 µM]
C[C@H]1CN([C@@H](C)CO)C(=O)c2cccc(NC(=O)c3nc4ccccc4s3)c2O[C@@H]1CN(C)S(=O)(=O)c1ccccc1
  -8.0	-8.6[16.7 µM]
Cc1ccc(S(=O)(=O)Nc2ccc3c(c2)C(=O)N([C@H](C)CO)C[C@H](C)[C@H](CN(C)C(=O)Nc2ccccc2)OCCCC[C@@H](C)O3)cc1
  -17.3	-13.9[16.7 µM]
C/C=C/c1ccc2c(c1)O[C@H](CN(C)S(=O)(=O)c1ccc(C)cc1)[C@H](C)CN([C@H](C)CO)S2(=O)=O
  -6.7	35.8[16.7 µM]
C[C@H](CO)N1C[C@H](C)[C@H](CN(C)Cc2ccc(C(F)(F)F)cc2)Oc2c(NC(=O)C3CC3)cccc2C1=O
  -12.7	-21.7[16.7 µM]
C[C@H]1CN([C@@H](C)CO)C(=O)Cc2cc(NC(=O)c3ccncc3)ccc2O[C@@H]1CN(C)C(=O)Nc1ccc2c(c1)OCO2
  -1.1	-3.1[16.7 µM]
COCCNC(=O)C[C@H]1CC[C@H]2[C@@H](COC[C@H](O)CN2C(=O)Nc2ccc3c(c2)OCO3)O1
  18.5	0.0[16.7 µM]
C[C@H](CO)N1C[C@H](C)[C@@H](CN(C)C(=O)Nc2ccc(F)cc2)Oc2ccc(N(C)C)cc2C1=O
  -1.1	-0.8[16.7 µM]
C[C@@H]1CN([C@@H](C)CO)S(=O)(=O)c2ccc(C#Cc3cccnc3)cc2O[C@@H]1CN(C)CC1CCOCC1
  -24.8	20.5[16.7 µM]
COCC#Cc1cnc2c(c1)C(=O)N([C@@H](C)CO)C[C@@H](C)[C@H](CN(C)C(=O)c1cnccn1)O2
  -6.9	-14.2[16.7 µM]
CCCN(C)C[C@H]1Oc2cc(-c3ccccc3F)ccc2S(=O)(=O)N([C@H](C)CO)C[C@H]1C
  20.1	17.1[16.7 µM]
CNC[C@H]1OCCCC[C@@H](C)Oc2ccc(NC(=O)C3CCCCC3)cc2C(=O)N([C@@H](C)CO)C[C@@H]1C
  20.3	3.8[16.7 µM]
C[C@H]1CN([C@@H](C)CO)C(=O)Cc2cc(NC(=O)c3ccncc3)ccc2O[C@H]1CN(C)Cc1ccccc1
  -9.2	9.6[16.7 µM]
O=S(=O)(NCC[C@H]1CC[C@@H](NS(=O)(=O)c2cccc(Cl)c2)[C@@H](CO)O1)c1cccc(F)c1
  3.1	-0.1[16.7 µM]
C[C@@H]1CN([C@@H](C)CO)C(=O)c2cc(NC(=O)Nc3ccc(C(F)(F)F)cc3)ccc2O[C@@H](C)CCCCO[C@H]1CN(C)C(=O)Nc1cccc2ccccc12
  -8.8	31.4[16.7 µM]
C[C@@H]1CN([C@H](C)CO)C(=O)c2cc(C#Cc3ccccc3F)cnc2O[C@@H]1CN(C)C(=O)c1ccc2c(c1)OCO2
  5.8	27.5[16.7 µM]
COc1ccccc1S(=O)(=O)N[C@H]1CC[C@H](CCNC(=O)C2CCC2)O[C@H]1CO
  2.2	8.5[16.7 µM]

Value order – UUG fidelity	HIV Env fusion
Cc1noc(C)c1NC(=O)Nc1ccc2c(c1)CC(=O)N([C@@H](C)CO)C[C@H](C)[C@H](CN(C)S(=O)(=O)c1ccc(Cl)cc1)O2
  12.2	-4.0[16.7 µM]
CC(C)c1cn(CC[C@@H]2CC[C@H](N)[C@@H](CO)O2)nn1
  193.5*	-3.0[16.7 µM]
C[C@H]1CN([C@@H](C)CO)S(=O)(=O)c2ccc(C#Cc3cccc(F)c3)cc2O[C@@H]1CN(C)C(=O)CN1CCOCC1
  17.4	0.0[16.7 µM]
Cc1ccc(S(=O)(=O)Nc2cccc3c2O[C@@H](CN(C)Cc2ccncc2)[C@@H](C)CN([C@H](C)CO)C3=O)cc1
  -16.3	-14.2[16.7 µM]
CNC(=O)C[C@H]1CC[C@H]2[C@@H](COC[C@H](O)CN2Cc2ccc(Cl)c(Cl)c2)O1
  -8.8	6.5[16.7 µM]
C[C@@H]1CN([C@H](C)CO)C(=O)Cc2cc(NS(=O)(=O)c3cn(C)cn3)ccc2O[C@@H]1CN(C)CC1CCCCC1
  -14.8	-33.3[16.7 µM]
COc1cccc(-c2cnc3c(c2)C(=O)N([C@H](C)CO)C[C@@H](C)[C@@H](CN(C)C(=O)CN(C)C)O3)c1
  1.4	-18.1[16.7 µM]
C[C@@H]1CCCCO[C@H](CN(C)C(=O)Nc2ccc3c(c2)OCO3)[C@H](C)CN([C@@H](C)CO)C(=O)c2cc(NC(=O)Nc3ccc4c(c3)OCO4)ccc2O1
  5.2	-50.0[16.7 µM]
CC(=O)N(C)C[C@@H]1Oc2ncc(C#Cc3cccnc3)cc2C(=O)N([C@H](C)CO)C[C@@H]1C
  0.5	1.3[16.7 µM]
C[C@@H]1CCCCO[C@@H](CN(C)S(=O)(=O)c2ccccc2)[C@@H](C)CN([C@@H](C)CO)C(=O)c2cc(NC(=O)Nc3cccc4ccccc34)ccc2O1
  -6.8	-23.5[16.7 µM]
COc1cccc(S(=O)(=O)N[C@@H]2CC[C@H](CC(=O)NCc3ccc(Cl)cc3)O[C@@H]2CO)c1
  11.0	-5.0[16.7 µM]
C[C@H](CO)N1C[C@H](C)[C@@H](CN(C)C(=O)Cc2ccccn2)Oc2cc(-c3cccc(C(=O)N(C)C)c3)ccc2S1(=O)=O
  3.9	8.0[16.7 µM]
Cc1noc(C)c1NC(=O)N(C)C[C@@H]1OCCCC[C@@H](C)Oc2ccc(NS(=O)(=O)c3cn(C)cn3)cc2C(=O)N([C@@H](C)CO)C[C@H]1C
  0.0	-5.2[16.7 µM]
CO[C@@H]1CN(C)C(=O)c2cc(NS(=O)(=O)c3ccccc3C)ccc2OC[C@@H](C)N(S(C)(=O)=O)C[C@@H]1C
  -3.4	23.9[16.7 µM]
Cc1ccc(S(=O)(=O)N(C)C[C@@H]2Oc3ccc(NS(=O)(=O)c4ccccc4)cc3C(=O)N([C@@H](C)CO)C[C@@H]2C)cc1
  -2.2	5.8[16.7 µM]
C[C@@H]1CCCCO[C@H](CN(C)C(=O)C2CCCCC2)[C@@H](C)CN([C@H](C)CO)C(=O)c2cc(NC(=O)Nc3ccc(F)cc3)ccc2O1
  -8.4	-10.0[16.7 µM]
C[C@H]1CN([C@@H](C)CO)S(=O)(=O)c2ccc(C#CC3CC3)cc2O[C@H]1CN(C)C(=O)C1CCCCC1
  -0.2	24.1[16.7 µM]
Cc1noc(C)c1NC(=O)Nc1ccc2c(c1)CC(=O)N([C@@H](C)CO)C[C@@H](C)[C@H](CN(C)S(=O)(=O)c1ccccc1)O2
  24.9	-21.3[16.7 µM]
CC(=O)N(C)C[C@H]1Oc2ncc(C#CCc3ccccc3)cc2C(=O)N([C@H](C)CO)C[C@H]1C
  12.4	3.1[16.7 µM]
C[C@H](CO)N1C[C@H](C)[C@H](CN(C)S(=O)(=O)c2ccc(Cl)cc2)Oc2ccc(NC(=O)Cc3ccccc3)cc2C1=O
  -5.0	-4.1[16.7 µM]

canonical_smiles	UUG fidelity	HIV Env fusion
CC(C)CC#Cc1ccc2c(c1)O[C@H](CN(C)Cc1ccccc1)[C@@H](C)CN([C@@H](C)CO)S2(=O)=O	9.3	-26.0[16.7 µM]
C[C@H]1CCCCO[C@@H](CN(C)C)[C@@H](C)CN([C@@H](C)CO)C(=O)c2cc(NC(=O)NC3CCCCC3)ccc2O1	4.5	12.0[16.7 µM]
CN1CCN(C(=O)C[C@@H]2C[C@@H]3c4cc(NC(=O)Nc5ccccc5)ccc4O[C@@H]3[C@H](CO)O2)CC1	-0.1	-14.1[16.7 µM]
CCS(=O)(=O)Nc1ccc2c(c1)C(=O)N(C)[C@H]1CC[C@@H](CC(=O)N3CCOCC3)O[C@@H]1CO2	-2.0	12.9[16.7 µM]
C[C@H](CO)N1C[C@H](C)[C@H](CN(C)S(=O)(=O)c2cccs2)Oc2ccc(N(C)C)cc2C1=O	-5.9	38.7[16.7 µM]
C[C@H]1CN([C@@H](C)CO)C(=O)Cc2cc(NC(=O)Nc3ccc4c(c3)OCO4)ccc2O[C@@H]1CN(C)CC1CC1	-14.7	14.0[16.7 µM]
CC(C)CC#Cc1cnc2c(c1)C(=O)N([C@H](C)CO)C[C@H](C)[C@@H](CN(C)Cc1ccccc1C(=O)O)O2	30.4	-3.5[16.7 µM]
C[C@H](CO)N1C[C@H](C)[C@@H](CN(C)C)Oc2cc(C#Cc3cccnc3)ccc2S1(=O)=O	-11.0	-4.2[16.7 µM]

canonical_smiles	UUG fidelity	HIV Env fusion
C[C@@H]1CN([C@@H](C)CO)C(=O)c2cc(C#CC(C)(C)O)cnc2O[C@@H]1CN(C)Cc1ccccn1	-8.2	2.8[16.7 µM]
COC(=O)C[C@@H]1CC[C@@H]2[C@H](COc3ccc(NC(=O)c4cccs4)cc3C(=O)N2C)O1	-8.5	-3.6[16.7 µM]
COc1ccccc1NC(=O)N1C[C@H](O)COC[C@@H]2O[C@@H](CC(=O)N3CCC(Cc4ccccc4)CC3)CC[C@H]21	5.0	12.7[16.7 µM]
COc1ccc(NC(=O)Nc2ccc3c(c2)[C@@H]2C[C@@H](CC(=O)NCc4ccncc4)O[C@@H](CO)[C@@H]2O3)cc1	-11.5	12.0[16.7 µM]
O=C(C[C@H]1CC[C@H](NS(=O)(=O)c2ccc(F)cc2)[C@@H](CO)O1)NC1CCCCC1	-7.8	18.7[16.7 µM]
C[C@H]1CN([C@@H](C)CO)S(=O)(=O)c2ccc(-c3ccncc3)cc2O[C@H]1CN(C)C(=O)CC1CC1	-6.9	-10.2[16.7 µM]
C[C@@H]1CN([C@@H](C)CO)C(=O)c2cc(NC(=O)Nc3ccc(F)cc3)ccc2O[C@H]1CN(C)Cc1ccncc1	-13.0	8.8[16.7 µM]
O=C(C[C@@H]1C=C[C@H](NC(=O)c2ccc3c(c2)OCO3)[C@H](CO)O1)NC1Cc2ccccc2C1	-3.6	-6.0[16.7 µM]

canonical_smiles	UUG fidelity	HIV Env fusion
COc1ccc(NC(=O)Nc2ccc3c(c2)C(=O)N([C@H](C)CO)C[C@@H](C)[C@H](CN(C)C(=O)Nc2ccc(F)cc2)OCCCC[C@@H](C)O3)cc1	-11.1	-18.2[16.7 µM]
C[C@@H]1CN([C@H](C)CO)C(=O)c2cc(NS(=O)(=O)c3ccccc3)ccc2O[C@H]1CN(C)C(=O)Nc1ccccc1	-17.3	-14.0[16.7 µM]
Cc1ccc(S(=O)(=O)Nc2ccc3c(c2)CC(=O)N([C@H](C)CO)C[C@@H](C)[C@H](CN(C)C(=O)Nc2ccccc2)O3)cc1	2.6	18.3[16.7 µM]
C[C@@H]1CCCCO[C@H](CN(C)Cc2ccc3c(c2)OCO3)[C@H](C)CN([C@@H](C)CO)C(=O)c2cc(NC(=O)Nc3ccc4c(c3)OCO4)ccc2O1	-5.3	14.4[16.7 µM]
COc1ccc(S(=O)(=O)Nc2ccc3c(c2)C(=O)N([C@H](C)CO)C[C@@H](C)[C@@H](CN(C)S(C)(=O)=O)OCCCC[C@@H](C)O3)cc1	8.6	4.4[16.7 µM]
COc1ccc(S(=O)(=O)N(C)C[C@H]2Oc3ccc(NS(=O)(=O)c4cccs4)cc3C(=O)N([C@@H](C)CO)C[C@@H]2C)cc1	-2.6	10.1[16.7 µM]
C[C@H]1CN([C@@H](C)CO)C(=O)c2cc(/C=C/c3ccccc3)cnc2O[C@H]1CN(C)S(=O)(=O)c1cn(C)cn1	0.6	-47.7[16.7 µM]
Cc1noc(C)c1NC(=O)Nc1cccc2c1O[C@H](CN(C)Cc1ccc(Oc3ccccc3)cc1)[C@H](C)CN([C@@H](C)CO)C2=O	1.8	0.1[16.7 µM]

The final 4 records of the section before open the next one:
canonical_smiles	UUG fidelity	HIV Env fusion
COc1ccc(S(=O)(=O)Nc2ccc3c(c2)C(=O)N([C@H](C)CO)C[C@@H](C)[C@@H](CN(C)S(C)(=O)=O)OCCCC[C@@H](C)O3)cc1	8.6	4.4[16.7 µM]
COc1ccc(S(=O)(=O)N(C)C[C@H]2Oc3ccc(NS(=O)(=O)c4cccs4)cc3C(=O)N([C@@H](C)CO)C[C@@H]2C)cc1	-2.6	10.1[16.7 µM]
C[C@H]1CN([C@@H](C)CO)C(=O)c2cc(/C=C/c3ccccc3)cnc2O[C@H]1CN(C)S(=O)(=O)c1cn(C)cn1	0.6	-47.7[16.7 µM]
Cc1noc(C)c1NC(=O)Nc1cccc2c1O[C@H](CN(C)Cc1ccc(Oc3ccccc3)cc1)[C@H](C)CN([C@@H](C)CO)C2=O	1.8	0.1[16.7 µM]
Cc1noc(C)c1NC(=O)N(C)C[C@H]1Oc2ccc(NS(=O)(=O)c3ccc(Cl)cc3)cc2CC(=O)N([C@@H](C)CO)C[C@H]1C	25.8	-4.3[16.7 µM]
COc1ccccc1-c1ccc([C@H]2[C@@H](C#N)N(C(=O)C3CCC3)[C@@H]2CO)cc1	10.6	1.8[16.7 µM]
C[C@@H]1CN([C@@H](C)CO)S(=O)(=O)c2ccc(Br)cc2O[C@H]1CN(C)Cc1cccc(F)c1	-1.3	28.8[16.7 µM]
Cc1ccc(S(=O)(=O)Nc2ccc3c(c2)C(=O)N([C@H](C)CO)C[C@H](C)[C@@H](CN(C)Cc2ccc(C(F)(F)F)cc2)OCCCC[C@@H](C)O3)cc1	7.8	9.2[16.7 µM]
